AID504770 = growth inhibition of E. coli YBA685, primary screen, V. cholerae RctB inhibitors; E. coli YBA685 rctB-dependent plasmid, OD600 growth, 3 h; active compounds read low; z-score (no concentration beside the values); AID 504770, 2011; 130,000 compounds, 0.27% hits;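 active means z-score under -2 on both plates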;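 further: wells of about 30 µL received 100 nL stock; score is relative to mean and SD of the test wells; the first replicate is given; strong numbers were not always called active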
Ba CapD inh = Bacillus anthracis CapD inhibitors, primary screen, biochemical, fluorescence intensity | CapD gamma-glutamyltranspeptidase (Bacillus anthracis Ames Ancestor) | purified CapD enzyme, fluorescence intensity read-out; active compounds read low; some hits fall short of the stated cut | z-score (test concentration not listed) | 140,000 compounds, 0.23% hits | AID 492967, 2010;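 active means z-score under -4 in either of two replicates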;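 further: stock transfer was 100 nL into about 40 µL; score is relative to mean and spread of the plate; one replicate is shown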
The depositor's hits bear a star; i = inactive; . = not tested or not shown; & = joins results of further samples.

SMILES	AID504770	Ba CapD inh
N#CC1(C#N)C(c2ccco2)OC23CCCCC2C1(C#N)C(=N)O3 (configuration not stated)	0.95	61.3
COc1ccc(C(=O)NCC(c2cccnc2)N(C)C)cc1 (configuration not stated)	-0.05	-0.145
O=C(CSCc1nc2ccccc2c(=O)n1-c1cccc(C(F)(F)F)c1)Nc1ccccc1	.	0.845
CCOc1ccc(NC(=O)c2cc(-c3ccc(OC)c(OC)c3)nc3ccccc23)c([N+](=O)[O-])c1	.	-0.52
CCS(=O)(=O)c1ccc(OC)c(NN=c2c(=O)c3ccccc3c2=O)c1	0.55	0.9
CC(=O)OCC1=C(C(=O)O)N2C(=O)[C@@H](NC(=O)CSc3ccncc3)[C@H]2SC1	-1.85	-0.155&-0.335
CC1(C)CC(N=Cc2ccco2)CC(C)(C)N1	0	-1.06
Cc1ccccc1NC(=O)NC1(C(=O)N2CCc3ccccc32)CCCCC1	-0.1	.
CCCc1nnc2n1N=C(c1ccc(Br)cc1)CS2	-0.05	0.895
N#Cc1c(-c2ccccc2)nc(SCc2c(Cl)cccc2Cl)[nH]c1=O	.	1.46
Cc1cc(SC(C)C(=O)O)n2c(nc3ccccc32)c1C#N (configuration not stated)	-0.45	.
O=C(c1cc(-c2ccc3c(c2)OCO3)on1)N(C1CCCCC1)C1CCCCC1	0.05	0.105
CCCOCC1CC2(CC(C)(c3csc(Nc4ccccc4Cl)n3)OC2=O)C(=O)O1 (configuration not stated)	.	-0.27
COc1ccc(-c2nc(CS(=O)CC(=O)N3CCCC3)c(C)o2)cc1 (configuration not stated)	-0.65	0.16
C[C@@H]1C(=O)OC2[C@H](O)C34[C@@H]5OC(=O)[C@@]3(O[C@@H]3OC(=O)[C@H](O)[C@@]34[C@H](C(C)(C)C)[C@H]5O)[C@]21O (some centres not stated)	0.65	.
COC(=O)c1c(C)[nH]c(C)c1/C=C1\C(=O)Nc2ccccc21	1.7	-0.97
O=C(CCc1nc2ccccc2[nH]1)Nc1ccccc1	-0.9	-0.795
CNC(=O)c1cc(OC)ccc1Br	-0.5	-0.41
CCOC(=O)c1c(-c2ccccc2)csc1NC(=O)C(C)(C)C	0.6	i
O=C(O)CCn1cc(/C=C2\SC(=S)NC2=O)c(-c2ccccc2)n1	-1.1	.
CC1CCCCN1c1nc2nonc2nc1N1CCCCC1C (configuration not stated)	.	-0.63
COC(=O)c1cc(=O)n(C2CC2)c(=NC2CC2)s1	-0.4	-0.7
CC1=C(C(=O)Nc2ccccc2C(=O)NCCc2ccco2)SCCO1	-1.3	-0.37
Cc1cc(C)n(CC(=O)n2c3ccccc3c3ccccc32)n1	0.1	.
CC1=C(C#N)C(Nc2ccccn2)(C(F)(F)F)C(=O)N1 (configuration not stated)	0.35	-0.215

Next section
SMILES	AID504770	Ba CapD inh
CCOC(=O)/C=C(\C)Nc1cc(-c2ccc(Cl)cc2)[nH]n1	-0.6	.
COc1ccccc1CNC(=O)c1csc(-c2cnccn2)n1	.	-1.36
CC(=O)Oc1c(-c2ccccc2)c(=O)n2c3c(cccc13)CC2	-1	2.69
N#Cc1ccc2ccn(CC(=O)NCCc3ccccc3)c2c1	1.05	.
O=C(Cn1c(-c2ccccc2)noc1=O)Nc1ccc(N2CCCCCC2)cc1	0.2	.
NC(=O)NCC(=O)N1CCN(c2c(F)c(F)c(F)c(F)c2F)CC1	0.15	.
CCOc1ccc(NC(=S)NC(C)(C)CC)cc1	-0.05	0.085
O=C(CCSc1ccccc1)Nc1nc2ccccc2s1	0.55	-0.055
CCNc1ccc2oc3ccccc3c2c1	-1.3	81.7
CCOC(=O)C1C(=O)NC(SCC(=O)Nc2cccc(OC)c2)=C(C#N)C1c1ccccc1OC (configuration not stated)	.	-0.56
CCOc1cc(C2CC(=O)NC(SCC(=O)Nc3ccc(Br)cc3)=C2C#N)ccc1O (configuration not stated)	.	0.275
CC1=C(C(=O)OC2CCCCCC2)C(c2cccc(OCc3ccccc3)c2)NC(=O)N1 (configuration not stated)	.	0.47
COc1ccc(NC(=O)Nc2c(C)noc2-c2ccccc2)cc1	-0.35	0.35
CC(Cc1ccco1)NC(=O)c1ccc(C(F)(F)F)cc1 (configuration not stated)	-0.25	-0.47
C=C(C)CN1C(=O)C(O)(c2c[nH]c3ccccc23)c2ccccc21 (configuration not stated)	2.25	-0.2
OCCOc1ccc(Cl)cc1Cl	-0.45	0.355
Cc1ccc2[nH]cc(CCNC(=O)OCc3ccc4ccccc4c3)c2c1	.	1.01
CCC(OCC(O)CN1CCCC1)c1ccccc1 (configuration not stated)	0.85	-0.195
O=C(/C=N/O)Nc1ccccc1C(=O)O	1	0.27
CC(C)Oc1ccc(C(=O)N(CN2CCCC2=O)c2ccc(F)cc2)cc1	-0.2	.
COC(=O)c1cc2ccccc2cn1	.	0.65
Cc1cc2n(n1)C(c1cccs1)Nc1ccccc1-2 (configuration not stated)	0.8	0.365
CCN(Cc1ccncc1)C(=O)c1cc(=O)c2ccccc2o1	0.15	0.73
COc1ccc(C2=NS(=O)(=O)c3ccccc3N2)cc1OC	-0.25	7.47
Nc1c(C(=O)N2CCc3ccccc3C2)sc(=S)n1-c1ccccc1	-0.2	0.32

One compound at a time, as listed above. Screens in order: AID504770	Ba CapD inh
Listed for COC(=O)c1c(C)[nH]c(C)c1/C=C1\C(=O)Nc2ccccc21 : 1.7	-0.97
Listed for COc1ccc(-c2nc(CS(=O)CC(=O)N3CCCC3)c(C)o2)cc1 (configuration not stated) : -0.65	0.16

More compounds
SMILES	AID504770	Ba CapD inh
C=CCNC(=O)CN1C(=O)c2ccccc2S1(=O)=O	-0.35	-0.505
CCOC(=O)c1cccnc1SCC(=O)N(C)c1ccccc1	-0.25	-0.04
NC(=O)CSc1nc2c(c(=O)n1Cc1ccccc1)C1(CCCCC1)Cc1ccccc1-2	.	1.02
COc1ccc(CC(=O)Nc2ccc(N3CCN(c4ccc(OC)cc4)CC3)c(C#N)c2)cc1	0.3	7.06
Cc1nnc(SCc2cc(=O)n3[nH]cnc3n2)s1	0.25	-0.015
CSc1nc(N)cc(N)n1	-0.35	0.36
O=C1c2ccccc2-c2nc3ccccc3n21	.	0.445
CNS(=O)(=O)c1ccc2c(c1)C(=O)c1cc(S(=O)(=O)NC)ccc1-2	.	0.395
CC1CCN(CN2C(=O)c3ccccc3C2=O)CC1	-0.4	0.245
C=CCOc1ccc(/C=C2\SC(=N)N(c3nonc3N)C2=O)cc1OCC	.	-0.79
Cc1cc(S(=O)(=O)c2ccc(C(F)(F)F)cc2[N+](=O)[O-])c(Cl)cc1Cl	.	-0.51
COc1ccccc1NC(=S)NC(=O)C(C)C	-0.35	-0.53
CN(C)c1ccc(-c2nc3cc(NC(=O)c4cc([N+](=O)[O-])ccc4Br)ccc3o2)cc1	.	0.97
CN(C)S(=O)(=O)c1ccc2c(c1)C(=NO)c1cc(S(=O)(=O)N(C)C)ccc1-2	.	1.77
O=c1oc2cc3occ(-c4ccccc4)c3cc2c2ccccc12	1.15	-0.765
O=C1CCCC1C1Sc2ccccc2NC1=O (configuration not stated)	-0.2	.
CCCSc1oc(-c2ccccc2)nc1S(=O)(=O)c1ccccc1	1.85	0.54
O=C(c1ccc(Br)cc1)N1CCC(Cc2ccccc2)CC1	-0.55	-0.19
CC(NC(=O)C(C)(C)C)C(c1cccs1)N1CCOCC1 (configuration not stated)	0.6	.
CCOc1ccc(S(=O)(=O)N(CC(=O)Nc2ccc(CC#N)cc2)c2ccccc2)cc1	-0.25	-0.395
COc1ccc(/C(C#N)=C/c2cn[nH]c2)cc1	0.35	-2.54
COc1ccc(Nc2nc(-c3cc4cc(Br)ccc4oc3=O)cs2)cc1OC	.	-0.31
COc1ccc(-c2c(C(=O)O)oc(=O)c3ccccc23)cc1	-0.15	-0.815
NC(=O)Cn1nc2sc3ccccc3n2c(=O)c1=O	-0.2	6.15
COc1cccc(NC(=O)Cn2c(-c3cncs3)nc3ccccc32)c1	0.05	2.91

Entries listed so far that contain a furan ring, fused or not (six):
SMILES	AID504770	Ba CapD inh
N#CC1(C#N)C(c2ccco2)OC23CCCCC2C1(C#N)C(=N)O3 (configuration not stated)	0.95	61.3
CC1(C)CC(N=Cc2ccco2)CC(C)(C)N1	0	-1.06
CC1=C(C(=O)Nc2ccccc2C(=O)NCCc2ccco2)SCCO1	-1.3	-0.37
CCNc1ccc2oc3ccccc3c2c1	-1.3	81.7
CC(Cc1ccco1)NC(=O)c1ccc(C(F)(F)F)cc1 (configuration not stated)	-0.25	-0.47
O=c1oc2cc3occ(-c4ccccc4)c3cc2c2ccccc12	1.15	-0.765

(continued)
SMILES	AID504770	Ba CapD inh
C#CCOc1ccc2c(c1)c(C(=O)OCC)c(C)n2-c1ccc(N(C)C)cc1	1.4	0.85
Cc1ccc(NC(=O)C2C3C=CC4(O3)C2C(=O)N(CCCN2CCOCC2)C4C(=O)NC2CCCC(C)C2C)cc1Cl (configuration not stated)	-0.75	0.05
O=C(NCc1cccs1)c1cc2c(s1)-c1ccccc1OC2	0.05	-0.315
Cc1nn(Cc2c(Cl)cccc2Cl)c(C)c1NC(=O)c1noc2c1CC(C(C)(C)C)CC2 (configuration not stated)	0.05	61.6
COc1ccc(-c2cc(C(F)(F)F)n3nc(C(=O)NC(C)C)c(Cl)c3n2)cc1OC	.	0.03
Cc1ccc(OCC(=O)Nc2ccc(S(=O)(=O)N3CCOCC3)cc2)c(C)c1	-0.2	.
CCOC(=O)c1c(-c2ccccc2)oc2ccc(OC(=O)c3ccc(OC)c(OC)c3)cc12	.	4.16
COc1ccc(CCn2c(=S)[nH]c3cc(C(F)(F)F)ccc32)cc1OC	-0.25	-0.375
Cc1c(Br)c(C(F)(F)F)nn1CC(=O)Nn1c(C2CCCCC2)nc2ccccc2c1=O	.	0.19
NC(=S)NNC(=O)C12CC3CC(CC(C3)C1)C2	.	-0.055
CC(C)=NNC(=O)COc1ccccc1	0.85	.
O=C1NC(=Nc2ccccc2)S/C1=C\c1ccccc1	3.2	0.065
CCOc1ncccc1C(=O)N1CCN(c2cccc(OC)c2)CC1	-0.7	.
CC(C)CC(=O)Nc1ccc(N2CCN(C(=O)c3cccs3)CC2)cc1	1.2	.
O=c1c2ccccc2c2ccccc2c(=O)n1-c1ccccc1	-0.3	0.96
O=C(CSC(=S)N1CCOCC1)c1c[nH]c2ccccc12	0.05	-0.01
COc1ccc(/C=C/c2cc(O)cc(O[C@@H]3O[C@H](CO)[C@@H](O)[C@H](O)[C@H]3O)c2)cc1O	.	-0.245
c1ccc(N2CCN(c3nc(N4CCOCC4)c4ccccc4n3)CC2)cc1	.	1.15
COc1cc(OC)nc(N)n1	.	0.32
Cc1ccnc(NS(=O)(=O)c2ccc(N3C(=O)Nc4ccccc4N3O)cc2)c1	0.05	61.6
CCN(CC)c1ccc(/C=C2/SC(=O)NC2=O)cc1	0.4	.
CN(C)C(=O)c1cn(-c2ccccc2)nc1-c1cc2ccccc2oc1=O	-1.2	19.5
O=C(c1ccccc1)N1c2ccccc2N=C(c2ccc(Cl)cc2)CC1c1ccccc1 (configuration not stated)	.	-0.25
COc1ccc(S(=O)(=O)NNc2ncnc3sc4c(c23)CCCC4)cc1	0.45	.
Cc1ccc(N(CC(=O)Nc2c(C)n(C)n(-c3ccccc3)c2=O)S(=O)(=O)c2ccc(C)cc2)cc1	.	0.1

More compounds follow:
SMILES	AID504770	Ba CapD inh
CCN(CC)C(=O)CN1C(=O)C2CCC(=O)CC2C1=O (configuration not stated)	.	-0.485
CN(C)C(=S)NC1CCCCC1	0.95	.
Nc1ccc(Br)cc1-c1n[nH]c(=S)[nH]c1=O	.	-0.645
O=C(O)c1ccc(-c2nn[nH]n2)cc1	-0.3	.
CC(=O)Oc1ccc2c(=O)oc(-c3ccccc3)nc2c1	0.1	0.735
CN(C)c1nc(N2CCOCC2)nc(N(c2ccccc2)c2ccccc2)n1	.	-0.19
O=C1CN(O)C=C2N=c3ccccc3=C2N1c1ccccc1	0.9	0.605
NCCCN1CCCCC1	-1.25	.
CCOC(=O)c1oc2ccc(Br)cc2c1COC(=O)Cn1c(=O)oc2ccccc21	-0.15	.
COc1cccc(NC(=O)COc2ccccc2F)c1	-0.7	-0.335
C=CCOc1ccc(C2C(C#N)=C(N)OC(C)=C2C(C)=O)cc1 (configuration not stated)	.	-0.015
Cc1cc2c(cc1C)C(c1ccc(Cl)cc1Cl)CC(=O)N2 (configuration not stated)	.	-0.51
S=C1C=C(N2CCCCC2)CC(c2cccs2)S1 (configuration not stated)	0.4	-1.81
Nc1ccccc1C(=O)NC12CC3CC(CC(C3)C1)C2	-1.05	56.4
O=C(NC1CCN(Cc2ccccc2)CC1)c1ccc2c(c1)OCCCO2	-2.7	0.17
CC1CCN(C(=O)Nc2csc3ccccc23)CC1	-0.55	-0.135
Cc1ccc2oc(-c3ccc(C(C)(C)C)cc3)nc2c1	2.2	0.84
O=C1CCCc2[nH]c(-c3ccccc3)nc21	-0.2	.
Cc1cccc(NC(=O)c2cc3ccccc3o2)c1	-0.5	0.515
NC(=O)CCN1CCn2c1nc1ccccc12	-0.6	0.39
CSC1=N/C(=C\c2ccc(Cl)cc2)C(=O)N1Cc1ccco1	.	17.3
NS(=O)(=O)c1ccc(CNS(=O)(=O)c2ccccc2)cc1	-0.15	1.1
COc1ccc(CN2CCN(S(=O)(=O)c3cc(F)c(Br)cc3F)CC2)cc1F	.	-0.755
Cc1c(C(=O)Nc2ccccc2C(F)(F)F)sc2nc(SCc3cccc([N+](=O)[O-])c3)n(Cc3ccccc3)c(=O)c12	.	0.305

An excerpt of these results, with each value named.
smiles: Nc1ccc(Br)cc1-c1n[nH]c(=S)[nH]c1=O
  AID504770 = . | Ba CapD inh = -0.645

smiles: O=C(O)c1ccc(-c2nn[nH]n2)cc1
  AID504770 = -0.3 | Ba CapD inh = .

smiles: CC(=O)Oc1ccc2c(=O)oc(-c3ccccc3)nc2c1
  AID504770 = 0.1 | Ba CapD inh = 0.735
